Cruzain inh Det = qHTS Assay for Promiscuous and Specific Inhibitors of Cruzain (with detergent). Cruzipain (Trypanosoma cruzi), P25779. purified cruzain, Z-FR-AMC fluorescence, 0.01% Triton. Potency, µM, for inactives: max response, negative = inhibition, most hits filed as inhibitors. 0.43% of 200,000 active; active = well fitted curve in the direction sought with a large enough effect; inconclusive = small, poorly fitted or top-dose-only effect, or another doubt; inactive = no such curve, though single readings can be large; an effect the other way counts as inactive or inconclusive;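 note: plate controls were neutral wells for no effect and buffer without enzyme for full effect; nearly all actives have a fitted effect of over 40% in size; top concentration of the series not given in the record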
Target sequence (P25779 123-467 limits assumed): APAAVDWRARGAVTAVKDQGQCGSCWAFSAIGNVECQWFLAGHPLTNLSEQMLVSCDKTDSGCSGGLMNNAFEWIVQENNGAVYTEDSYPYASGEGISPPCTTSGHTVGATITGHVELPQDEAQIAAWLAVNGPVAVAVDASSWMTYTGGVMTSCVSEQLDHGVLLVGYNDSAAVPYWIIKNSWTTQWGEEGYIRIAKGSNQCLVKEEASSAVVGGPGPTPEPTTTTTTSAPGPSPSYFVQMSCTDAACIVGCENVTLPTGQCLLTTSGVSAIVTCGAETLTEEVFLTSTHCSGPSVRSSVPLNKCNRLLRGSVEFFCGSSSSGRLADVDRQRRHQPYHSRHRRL
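Steps: dispense cruzain (1.5 nM final) in acetate buffer pH 5.5 with DTT and 0.01% Triton X-100; pin-transfer compounds; incubate 15 min RT; add Z-FR-AMC (2 uM final); read fluorescence every 30 s, using the 60 s intensity change.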
SARS PLpro yeast = qHTS of Yeast-based Assay for SARS-CoV PLP; S. cerevisiae expressing SARS-CoV PLpro, growth rescue; control for the full effect not named in the record; Potency, µM (top dose mostly 32.9 µM), inactives show top-dose activity, positive = growth rescue; 0.19% of 330,000 active; note: 0% is about no effect; nearly all actives have a fitted effect of over 55% in size; growth read by luminescence after 48 h
Cruzain noTriton = qHTS Assay for Promiscuous and Specific Inhibitors of Cruzain (without detergent); Cruzipain (Trypanosoma cruzi), P25779; purified cruzain, Z-FR-AMC fluorescence, no detergent; Potency, µM, for the others: max response, negative = inhibition, hits mostly inhibitors; 2.3% of 200,000 active; AID 1476, 2009; active = well fitted curve in the direction sought with a large enough effect; inconclusive = small, poorly fitted or top-dose-only effect, or another doubt; inactive = no such curve, though single readings can be large; an effect the other way counts as inactive or inconclusive;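 note: plate controls were enzyme without inhibitor for no effect and buffer without enzyme for full effect; nearly all actives have a fitted effect of over 40% in size; top concentration of the series not given in the record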
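Detergent-free condition (0.00005% Triton X-100) in acetate buffer pH 5.5 with DTT. 1.5 nM enzyme and compound were pre-mixed 15 min, then 2 uM Z-FR-AMC substrate added; reaction progress from fluorescence change between first and third reads (60 s).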
Lassa entry inh = qHTS for Inhibitors of binding or entry into cells for Lassa Virus | Lassa virus pseudotype entry inhibition, cell reporter; control for the full effect not named in the record | Potency, µM (top dose mostly 37.9 µM), inactives show at the top dose activity change, negative = inhibition, actives largely listed as inhibitors | 1.2% of 300,000 active | AID 540256, 2011; active means well fitted inhibition curve with a large enough effect; inconclusive means small, poorly fitted or top-dose-only effect, or effect the other way; inactive means flat fitted curve, though single readings scatter; tested in HEK293 cells; note: % is set by controls: 0 for no effect and ±100 for the full control effect; nearly all actives have a fitted effect of over 50% in size; luciferase read-out
Marburg entry inh = qHTS for inhibitors of binding or entry into cells for Marburg Virus; Marburg virus pseudotyped entry inhibition, cell reporter; control for the full effect not named in the record; about a third of the inactives were read at about 46 µM; Potency, µM (titrated, usually from 37.8 µM), without a hit: top-dose activity change, negative = inhibition, most hits filed as inhibitors; 1.8% of 300,000 active; AID 540276, 2011; active = well fitted inhibition curve with a large enough effect; inconclusive = small, poorly fitted or top-dose-only effect, or effect the other way; inactive = flat fitted curve, though single readings scatter; tested in HEK293 cells; about a fifth of its hits are not listed in these tables; note: % is set by controls: 0 for no effect and ±100 for the full control effect; luciferase read-out
NS1 inh = qHTS Assay for Inhibitors of Influenza NS1 Protein Function. S. cerevisiae slowed by influenza A NS1, growth recovery by OD600. Potency, µM (top dose mostly 46.1 µM), for the others: top-dose activity, positive = more growth. 0.4% of 270,000 active. AID 2326, 2010; note: actives are rising curves; nearly all actives have a fitted effect of over 50% in size
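Compounds were scored for reversing the slow growth caused by influenza A NS1 in S. cerevisiae, measured by optical density at 600 nm. Assay medium contained 2% galactose at pH 6.0; NS1-free yeast of the same strain were the positive control.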
RE007 growth inh = qHTS Assay for Inhibitors of the HIV-1 protein Vpr | S. pombe RE007 Vpr strain, BacTiter-Glo ATP luminescence, 24 h; control for the full effect not named in the record | 0.21% of 360,000 active | AID 651644, 2012 | Potency, µM (highest dose often 92.2 µM), for inactives: top-dose activity change, negative = less growth; active = well fitted falling curve with a large enough effect; inconclusive = small, poorly fitted or top-dose-only effect; inactive = no such curve, though single readings can be large or run the other way;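 note: % is set by controls: 0 for no effect and ±100 for the full control effect; nearly all actives have a fitted effect of over 50% in size; the assay follows cell death caused by Vpr and the record does not say whether a fall means rescue or toxicity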
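Fission yeast strain RE007, carrying one chromosomally integrated HIV-1 vpr copy, was seeded at OD 0.01 in PMG+AL medium with 23 nL pinned compound. After 24 h at 30 °C and 99% humidity, viability was read by BacTiter-Glo luminescence.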
StopGo reporter = High Throughput Screening for Foot and Mouth Disease Virus Antivirals; Potency, µM (top dose mostly 57.9 µM), without a hit: at the highest dose signal change, negative = less light; human cells with a luciferase reporter of 2A StopGo recoding; control for the full effect not named in the record; 1.2% of 410,000 active; AID 1159524, 2015; active = well fitted falling curve with a large enough effect; inconclusive = small, poorly fitted or top-dose-only effect; inactive = no such curve, though single readings can be large or run the other way; tested in HEK293T cells; note: % is set by controls: 0 for no effect and ±100 for the full control effect; nearly all actives have a fitted effect of over 45% in size; luciferase light after 4 h
* marks the source's active call; other numbers are inactive results; ? = inconclusive; / = not tested or not shown; & = joins results of further samples; [ ] = another dose, or the depositor's remark. Unless noted, calls come from the whole dose curve; as a rule, active means well fitted rising curve with a large enough effect; inconclusive means small, poorly fitted or top-dose-only effect; inactive means no such curve, though single readings can be large or run the other way. Potency is the fitted concentration of half-maximal effect.

SMILES	Cruzain inh Det	SARS PLpro yeast	Cruzain noTriton	Lassa entry inh	Marburg entry inh	NS1 inh	RE007 growth inh	StopGo reporter
N#Cc1ccsc1NC(=O)c1cccc([N+](=O)[O-])c1	/	1%	/	0%	-8%[46.1 µM]	/	-19%	-21%
Cc1ccc(S(=O)(=O)CCc2ccccn2)cc1	-1.4%	-6%	-14%	16%	17%	-3%	10%	39%[activator]
COc1ccccc1N1CCN(C(=O)c2noc(C)c2[N+](=O)[O-])CC1	/	-2%	/	/	/	1%	-17%	-12%
CC(=O)N1c2c(cc(Br)cc2S(=O)(=O)NCc2ccc3c(c2)OCO3)CC1C (stereo not given)	2.9%	2%	-8%	5%	12%&12%	-2%	27%	65%[activator]
CCOc1ccccc1CNC(=O)c1cc2n(n1)CCCN(Cc1ccc(C)cc1)C2=O	-3.5%	/	10%	-30%[46.1 µM]	/	/	/	-16%
Cc1cc(C(F)F)n2ncc(C(=O)N3CCc4ccccc4C3)c2n1	0.1%	4%	4%	3%	-20%[46.1 µM]	-4%	15%	0%
CSc1n[nH]c(NC2=CC(=O)CCC2)n1	0.9%	4%	-1%	-19%	7%	-4%	0%	22%
COc1ccc(OC)c(NC(=O)CCNC(=O)Cn2cnc3ccccc3c2=O)c1	/	-4%	/	20%&-1%[46.1 µM]	-1%&-22%[46.1 µM]	/	4%	-19%&-6%
O=C(NC1CC1)c1cc2c(s1)CS(=O)(=O)C2	/	-1%	/	8%	11%[46.1 µM]	/	-19%	1%
O=C(Nc1nccs1)c1ccc(Cl)cc1[N+](=O)[O-]	2.1%	-9%	-2%	?	21%	6%	-14%	/
CCOc1c(S(=O)(=O)N2CCCC2)ccc(Cl)c1Cl	-6.6%	-15%	-11%	2%	-13%	-27%	-19%	-18%
COc1ccccc1C(=O)Nc1ccc2c(C)cc(=O)oc2c1	/	-1%	/	?	?	1%	3%	71%[activator]
O=C(Nc1nnc(Cc2ccc(Cl)cc2)s1)c1ccco1	0.2%	-5%	?	10%	4%	-6%	0%	/
COc1ccc([N+](=O)[O-])cc1NC(=O)c1cn(-c2ccc(C)c(C)c2)c(=O)c2ccccc12	-0.2%	13%	?	0%	11%	7%	-13%	?
O=C(c1ccccc1NS(=O)(=O)c1cccc([N+](=O)[O-])c1)N1CCCC1	/	-5%	/	3%	-16%	12%	-18%	5%
Cc1ccc(-n2ncc3c(NCCCN4CCCC4=O)ncnc32)c(C)c1	0.0%	1%	-9%	-13%&-2%	-11%&34%&34%	-2%	-2%	-1%
Cn1cnnc1SCC(=O)Nc1sc2c(c1C(N)=O)CCC2	-14%	-6%	-14%	10%	8%	6%	-2%	/
COCC(=O)N1CCC(Oc2ccc(C(=O)NC3CCOC(C)(C)C3)cc2)CC1 (stereo not given)	/	-6%	/	?	6%	12%	-1%	-15%
COc1ccc(-c2nnc(SCC(=O)NCC3CCCO3)o2)cc1 (stereo not given)	/	10%	/	16%[46.1 µM]	25%[46.1 µM]	14%	2%	0%
O=C(NCCc1ccccc1)C1CCCN(S(=O)(=O)c2cccc3nonc23)C1 (stereo not given)	3.9%	3%	-2%	6%	3%	8%	26%	-24%
O=C(Oc1ccccc1N1C(=O)C2CCCCC2C1=O)c1ccccc1 (stereo not given)	1.8%	-3%	-2%	-4%	4%	5%	0%	-16%
CC1CCCC(C)N1NC(=O)c1cccc(S(=O)(=O)N2CCc3ccccc32)c1 (stereo not given)	/	-6%	/	6%[46.1 µM]	?	/	8%	-3%
FC(F)(F)c1cc(-c2ccco2)nc(NCc2ccco2)n1	-15%	-9%	6%	0%	-1%	-64%	-4%	-12%
COc1cccc(-c2nnc(SCCC(=O)O)n2C)c1	4.4%	0%	-9%	-13%[14.3 µM]	4%	0%	-2%	18%
Nc1nc(-c2ccc(Oc3ccccc3)cc2)cs1	/	-28%	/	/	/	-116%	-24%	22%
COCc1nnc(NC(=O)CCSc2ccccc2)s1	-1.4%	2%	-1%	17%	?	-8%	-2%	24%
Cc1ccc(NC(=O)CCc2nc3sc4c(c3c(=O)[nH]2)CCCC4)c(Br)c1	/	-4%	/	?	?	/	-13%	-11%
CC(=O)N1CCc2ccccc2C1CC(=O)O (stereo not given)	/	-1%	/	-4%[46.1 µM]	9%[46.1 µM]	12%	-4%	-26%
CCOC(=O)C1C(C(=O)OC)=C(C(=O)OC)c2ccccc2N1S(=O)(=O)C(F)(F)F (stereo not given)	0.3%	0%	0%	/	3%	/	2%	-5%
COC(=O)N/N=C(\C)c1ccc(OC(F)F)cc1OC(F)F	-2.7%	16%	14%	2%	6%	-4%	0%	-14%
COCc1cc(=O)n2[nH]c(-c3cccc(Br)c3)cc2n1	4.5%	-11%	-3%	20%	-6%	7%	5%	31%[activator]
CCCCn1c(=O)c(C(=O)NCc2ccccc2OC)c(O)c2ccccc21	/	-11%	/	/	/	6%	-4%	-23%
COc1ccc(-n2ncc3c2CC(C)(C)CC3NC(=O)c2ocnc2C)cc1 (stereo not given)	/	7%	/	?	-27%[46.1 µM]	-7%	1%	-5%
C=CCNC(=S)N1CCc2c([nH]c3ccccc23)C1C (stereo not given)	/	-7%	/	-2%	6%[46.1 µM]	-31%	0%	-11%
CNc1nc(SCC(=O)OC)nc(N2CCOCC2)n1	3.4%	3%	-5%	12%	-3%	-10%	-20%	12%
Cn1c(SCCOc2ccccc2Cl)nnc1-c1ccncc1	-1.0%	3%	-2%	-17%	3%	-14%	1%	-4%
C/C(=N\Nc1ccc([N+](=O)[O-])cc1)c1ccc(N)cc1	-3.4%	-81%	?	-13%	?	-43%	11%	29%
CC(C)CNS(=O)(=O)c1ccc(S(=O)(=O)N2CCCN(Cc3ccccc3)C2)cc1	2.4%	1%	-15%	3%	?	-1%	-4%	6%
COc1cccc(N2CCN(S(=O)(=O)c3cc(-c4cc(C)no4)ccc3C)CC2)c1	0.3%	/	2%	14%[46.1 µM]	/	/	/	?
CC1CCC(NC(=O)Cn2c(=O)oc3cc(S(=O)(=O)N4CCCC4)ccc32)CC1 (stereo not given)	/	1%	/	/	/	-3%	8%	-8%
CCOc1ccc(NC(=O)N2CCC(n3c(=O)[nH]c4ccccc43)CC2)cc1	6.6%	-5%	6%	/	/	-1%	-4%	0%
O=S(=O)(SC1=NCCN1)c1ccccc1	/	/	/	3%	?	/	2%	-19%
C=C1c2c(Cl)ccc(O)c2C(O)=C2C(=O)[C@@]3(O)C(O)=C(C(N)=O)C(=O)[C@@H](N(C)C)[C@@H]3[C@@H](O)[C@H]12	-4.9%	/	-5%	?	-31%	/	/	/
COc1cc(C(=O)NCCC(=O)N2CCC3(CC2)NCCc2[nH]cnc23)cc(OC)c1OC	/	27%	/	/	/	-9%	1%	-4%
COc1ccc(-c2nc3ccccc3o2)cc1NC(=O)c1ccc(OCC(C)C)cc1	1.0%	/	-7%	?	5%[46.1 µM]	/	/	4%
Cc1nc2ccc(S(=O)(=O)Nc3cccc(-c4nc5cccnc5s4)c3C)cc2s1	-1.5%	-28%	-19%	-13%	?	5%	0%	?
O=C(Cc1ccc(O)cc1)N/N=C/c1cccs1	/	0%	/	4%[46.1 µM]	0%[46.1 µM]	-3%	-8%	-1%
O=C(CN1C(=O)CCSc2ccccc21)Nc1ccccc1F	-3.7%	/	0%	/	8%[46.1 µM]	/	/	-19%
OCCOCCOc1ccc(-c2nn[nH]n2)cc1	/	-1%	/	-5%[46.1 µM]	8%[46.1 µM]	/	14%	-13%
N#C/C(=C/c1cn(CC(=O)O)c2ccccc12)C(=O)Nc1ccccc1	/	0%	/	6%	22%[46.1 µM]	0%	2%	-8%
CCN(CC)C(=O)c1ccc(NC(=O)Cn2nc(-c3ccc(C)cc3)c3ccccc3c2=O)cc1	-1.1%	/	1%	-4%[46.1 µM]	-8%[46.1 µM]	/	/	-12%
O=C(O)C(C1CCCCC1)C1(O)CCCC1 (stereo not given)	/	/	/	13%	8%	/	-6%	-12%
CCn1c(SCc2ccccc2Cl)nc(=O)c2c(C(=O)OC)cc(C3CC3)nc21	-6.5%	/	-1%	-29%[46.1 µM]	/	/	/	-4%
CCCCC(=O)Nc1nnn(CCC)n1	0.3%	0%	1%	4%	14%	-3%	11%	0%
CCC(OC(=O)c1cc2sccc2n1C)C(=O)NCc1ccco1 (stereo not given)	2.6%	-17%	-1%	3%	-12%	-47%	17%	/
COc1cc(/C=C2/C(=O)NN(c3ccccc3)C2=O)cc(Br)c1O	/	4%	/	/	/	-3%	2%	10%
O=C1CCc2cc(S(=O)(=O)NCCc3ccccc3)cc3c2N1CC3	/	3%	/	-32%	2%	/	8%	72%[activator]
COc1ccccc1N1CCN(C2CC(=O)N(c3cccc(Cl)c3)C2=O)CC1 (stereo not given)	/	-26%	/	/	/	-30%	?	-17%
O=C(OCCN1C(=O)c2ccccc2C1=O)c1cc(S(=O)(=O)N2CCOCC2)ccc1F	0.7%	/	?	3%	6%	2%	-6%	-27%
Cc1cccc(N2C(=O)CC(NNc3nc4ccccc4s3)C2=O)c1 (stereo not given)	-0.9%	-7%	0%	12%	39%	0%	-11%	-13%
(further entries)
SMILES	Cruzain inh Det	SARS PLpro yeast	Cruzain noTriton	Lassa entry inh	Marburg entry inh	NS1 inh	RE007 growth inh	StopGo reporter
CCOC(=O)N1CCN(C(=S)NC2CCCCC2)CC1	-1.9%	-12%	-3%	-29%	5%	-5%	-19%	-5%
COc1ccc(OCC(=O)Nc2ccc(C)cc2)cc1	1.0%	-11%	1%	-11%	-3%	-100%	-14%	31%[activator]
Cn1nc(-c2ccccc2)cc1NC(=O)c1cccs1	/	-1%	/	/	/	-2%	10%	10%
CCCCN1C(=O)C(=O)N(CC(=O)c2cc(C)n(C3CC3)c2C)C1=O	/	1%	/	4%	29%	/	1%	3%
O=C(CSc1nccn1-c1ccccc1)N1CCc2ccccc21	-1.7%	5%	-3%	0%	?	-11%	14%	14%
O=c1[nH]c(-c2ccccc2)nc(-c2ccccc2)c1Cl	/	/	/	15%	-3%	/	4%	5%

Screening results: PubChem, National Center for Advancing Translational Sciences (NCATS)
